Sa helicase inh = inhibitors of S. aureus replicative helicase, primary screen, biochemical, fluorescence unwinding readout; inhibition, %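 (tested at about 80 µM)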; purified S. aureus helicase, fluorescence unwinding assay; about half of the hits fall short of the stated cut; replicative DNA helicase (DnaC/DnaB), Staphylococcus aureus; AID 485395, 2010; 0.05% of 120,000 active;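 active = both duplicates at 50% or more, or one of them with a favoured structure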;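 also: 0% = mean of negative control wells and 100% = mean of positive control wells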
MgrA-DNA mod = S. aureus MgrA activity modulators, primary screen, biochemical, S. aureus Newman, fluorescence polarization | AID 602314, 2012 | MgrA-DNA binding | 0.13% of 84,000 active | inhibition, %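 (about 10 µg/mL by stock and volumes)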;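 active = above 50% in either of two replicates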;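 also: 0% = protein plus DNA without compound and 100% = DNA alone without protein; higher means less MgrA bound to DNA so lower polarization; one replicate is shown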
* = called active by the depositor; · = no result given; & = joins results of further samples.

#	MgrA-DNA mod	Sa helicase inh	SMILES
1	·	-120.0	CC1CC(C)CN(c2cc(NCCO)c3c4c(onc24)-c2ccccc2C3=O)C1 (stereo not drawn)
2	·	-3.0	Cc1nn(-c2ccccc2)c2sc(C(=O)NCCN3C(=O)S/C(=C\c4cccnc4)C3=O)cc12
3	·	3.0	N/C(=N\O)c1ccsc1
4	·	9.0	CCCNC(=O)C(C)N (stereo not drawn)
5	-1.4	5.0	N#CC1=C(N)OC2=C(C(=O)CCC2)C1c1ccoc1 (stereo not drawn)
6	-0.7	-14.0	COC(=O)/C(=C/c1ccc(OC(F)(F)F)cc1)NC(=O)c1ccccc1
7	·	34.0	COC(CNC(=O)CN1C(=O)/C(=C/c2ccccc2F)Oc2ccccc21)OC
8	-1.5	·	O=S(=O)(Nc1ccccc1N1CCOCC1)c1cccs1
9	-5.8	4.0	CC(C)COc1ccc(CC(C#N)C(=O)O)cc1Cl (stereo not drawn)
10	-4.0	·	O=C(NCCNc1nccc(C(F)(F)F)n1)c1ccco1
11	0.0	15.0	Nc1c(C(=O)Nc2ccccc2C(F)(F)F)sc2[nH]c(=O)c(C(=O)O)cc12
12	2.4	·	CC(C)Oc1cc(N)c(Cl)cc1Cl
13	·	5.0	O=c1[nH]nc(SCc2csc(-c3ccccc3)n2)n1Cc1ccccc1
14	3.4	5.0	CC1CCN(C(=O)CSCC(=O)O)CC1
15	-0.7	-18.0	CCN1C(=O)/C(=C/c2ccc(NC(C)=O)cc2)SC1=S
16	1.2	·	N/C(=N\S(=O)(=O)c1cc(Cl)c(Oc2ccc([N+](=O)[O-])cc2Cl)c(Cl)c1)c1cccnc1
17	1.2	6.0	CCN(CC)Cc1c(O)ccc2occ(C(=O)c3ccccc3)c12
18	·	5.0	O=C(CCc1ccccc1)NNc1ccc(F)cc1
19	-0.5	8.0	Cc1ccc2oc(=O)c3cc(C(=O)Nc4ccc5c(C)cc(=O)oc5c4)sc3c2c1
20	·	13.0	CC(=O)N1CCCc2cc(S(=O)(=O)Nc3cc(C)[nH]n3)ccc21
21	·	3.0	CC(=O)N1CN(Cc2cccnc2)Cc2c1sc1c2CCCC1
22	-0.8	·	COc1cc2ccccc2cc1C(=O)Nc1ccc2nc(C)sc2c1
23	·	13.0	Clc1ccc(-c2nn(-c3ccccc3)cc2C=NCc2ccco2)cc1
24	2.0	5.0	COc1ccc(C(=O)Nc2sc3c(c2C(=O)NCc2ccco2)CCCC3)cc1OC
25	·	5.0	CCOc1ccc(NC(=S)N2CC(O)CC2C(N)=O)cc1 (stereo not drawn)
26	0.5	7.0	O=C1C2C3C=CC(C3)C2C(=O)N1c1ccc(Cl)cc1 (stereo not drawn)
27	2.8	·	COc1ccc(C2=NN(C(=O)CCCC(=O)O)C(c3cc(OC)ccc3OC)C2)cc1 (stereo not drawn)
28	-1.2	·	Cc1nn(C(C)(C)C)c(C)c1C#N
29	·	16.0	CCCCC(C(=O)O)n1cccc1 (stereo not drawn)
30	-0.1	-9.0	COc1cccc(CNCC(C)O)c1OC (stereo not drawn)
31	-2.0	·	COc1ccc(CCNS(=O)(=O)c2ccc(Cl)cc2)cc1OC
32	·	10.0	Cc1nc2ccn(Cc3cccnc3)c(=O)c2cc1C(=O)Nc1ccccc1
33	·	6.0	COc1ccc(/C(C)=N/NC(=O)Cc2c(C)nc(C)[nH]c2=O)cc1
34	·	16.0	CC(C)Sc1n[nH]c(=S)n1N
35	·	-10.0	CCn1c(SCC(=O)NC(C)(C#N)C(C)C)nnc1-c1ccccc1 (stereo not drawn)
36	0.0	1.0	CCOc1ccccc1NC(=O)c1ccccc1C
37	-0.3	1.0	O=C(NCC1CCN(Cc2cccc(Cl)c2)CC1)Nc1ccc(Cl)cc1
38	·	13.0	CCOC(=O)c1c(C)[nH]c(C)c1C(=O)COC(=O)CSc1nnc(-c2ccco2)n1CC
39	4.8	·	CCCOC(=O)Nc1nnc(CCC)s1
40	·	-19.0	CC(=O)NC1C(Oc2ccccc2)OC(COC(C)=O)C(OC(C)=O)C1OC(C)=O (stereo not drawn)
41	-1.5	7.0	C1=C(C(c2nnnn2C2CCCCC2)N2CCCCC2)COc2ccccc21 (stereo not drawn)
42	-1.6	·	CC(C)(C)c1cc(/C=C(\C#N)C(N)=S)cc(C(C)(C)C)c1O
43	·	-28.0	CCCCOc1ccc(NC(=O)CCSc2nccn2C)cc1
44	4.0	·	O=C(CCc1ccc(O)cc1)NNC(=S)Nc1cccc(C(F)(F)F)c1
45	·	-39.0	C(=N\NC1=Nc2cccc3cccc1c23)/c1ccccn1
46	-1.5	·	COc1cc(-c2ccc(Cl)cc2)nc(N)n1
47	-2.1	·	CC1CC(=O)Nc2ccccc2N1C(=O)c1cccc(Cl)c1 (stereo not drawn)
48	0.9	-3.0	O=C(/C=C/c1ccccc1)N1CCCC1=O
49	0.5	13.0	O=C(NCc1cn2ccccc2n1)c1cccc(C(F)(F)F)c1
50	-1.6	·	O=C(NC1CCN(c2nccc(C(F)(F)F)n2)CC1)c1cccs1
51	·	-2.0	NC(=O)COC(=O)c1cc(-c2cccs2)nc2ccccc12
52	-0.3	16.0	CCCCN1N=C(C)CC1=O
53	-5.0	6.0	C=CCC(NCc1ccco1)c1ccc(N(C)C)cc1 (stereo not drawn)
54	6.0	-13.0	Cc1ccc(-n2c(C)csc2=N)cc1
55	·	4.0	COC(=O)c1ccc(OCC(=O)/C(C#N)=C(\C)N)cc1
56	-4.3	0.0	O=C(O)c1cc2ccccc2[nH]c1=O
57	-5.3	7.0	CN(C)c1nc(Cl)nc(NCCCC(=O)O)n1
58	·	-6.0	CCOc1ccc(OCCNC(=S)NC)cc1
59	·	-1.0	NC(=O)NOCc1ccccc1
60	-4.1	2.0	O=C(CSC1=NCCS1)NC1CC1

Next compounds:
#	MgrA-DNA mod	Sa helicase inh	SMILES
61	0.8	4.0	Oc1ccc(CNc2ccccc2O)cc1
62	-0.6	3.0	CCN(CC)c1ccc2c(=O)[nH][nH]c(=O)c2c1
63	-1.6	23.0	CN1C(=O)c2cccc3c(S(=O)(=O)N(C)C)ccc1c23
64	-0.1	·	S=C(NCc1ccncc1)Nc1ccccc1Cl
65	-2.1	10.0	O=c1[nH]c2ccc(N=Cc3ccc(C#Cc4ccccc4)cc3)cc2o1
66	-2.5	3.0	Cc1nnc2n1N=CC=C(c1ccccc1)S2
67	-3.0	11.0	CSc1nc2ccc(N=Cc3ccc(Sc4nnnn4-c4ccccc4)o3)cc2s1
68	·	-7.0	Cc1nnc(SCC(=O)c2cc(C)n(CCC(C)C)c2C)n(N)c1=O
69	-0.5	-6.0	CCCc1nc2ccccc2c(C(=O)OCC(N)=O)c1CC
70	4.0	·	CC1=NN(c2ccccc2)C(=O)C1/C=C1\C(=O)NC(=S)N(c2ccc(F)cc2)C1=O (stereo not drawn)
71	2.3	-12.0	CCN(CC)Cc1cc(C(=O)O)co1
72	5.4	9.0	O=C(CC1SC(=Nc2ccccc2)N(CCCCO)C1=O)NCc1ccccc1 (stereo not drawn)
73	6.3	·	Oc1c(Cl)cc(Cl)cc1/C=N/NC(=S)NC1CC2C=CC1C2 (stereo not drawn)
74	·	7.0	CCOC(=O)N1CCC(c2cc(=O)n(-c3ccccc3)[nH]2)CC1
75	-0.3	·	C=CCn1cnc2sc(-c3ccccc3)cc2c1=O
76	17.8	-10.0	CSc1ccc(C=C2C(=O)c3ccccc3C2=O)cc1
77	-1.6	3.0	COc1ccccc1NC(=O)CSc1nc2n[nH]c(C)c2c(=N)n1-c1ccc(C)c(Cl)c1
78	·	8.0	CCn1nnc2c(Nc3ccc4c(c3)OCO4)ncnc21
79	0.4	8.0	C=CCN(CC=C)S(=O)(=O)c1ccc(N)cc1
80	·	8.0	Nc1nc(SCc2cc(=O)oc3ccc4ccccc4c23)n[nH]1

Three compounds already listed, ordered by their value in MgrA-DNA mod, smallest number first.
entry	canonical_smiles	MgrA-DNA mod
77	COc1ccccc1NC(=O)CSc1nc2n[nH]c(C)c2c(=N)n1-c1ccc(C)c(Cl)c1	-1.6
64	S=C(NCc1ccncc1)Nc1ccccc1Cl	-0.1
70	CC1=NN(c2ccccc2)C(=O)C1/C=C1\C(=O)NC(=S)N(c2ccc(F)cc2)C1=O (stereo not drawn)	4.0

Next records:
#	MgrA-DNA mod	Sa helicase inh	SMILES
81	-3.0&2.1	·	COc1cc(N)c(Cl)cc1C(=O)NC1CCN(Cc2ccccc2)CC1
82	-1.2	21.0	c1ccc2c3nnc4n(c-3nc2c1)CCCS4
83	-1.0	·	Cc1ccc2cc(NC(=O)C3CC(=O)N(Cc4ccco4)C3)ccc2n1 (stereo not drawn)
84	-1.5	9.0	C=CCc1cccc2cc(C(=O)N3CCN(c4ccccc4F)CC3)c(=O)oc12
85	-0.3	·	CCNc1nc(NCC)nc(Oc2ccc(C(=O)OC)cc2)n1
86	-0.3	-7.0	CC1(C)CC(CCC(=O)NC(=S)Nc2ccccc2Cl)C(=O)O1 (stereo not drawn)
87	·	4.0	O=c1cnc2ccccc2n1Cc1ccc(Br)cc1
88	·	-13.0	CC(C)(CN1CCCCCC1)NS(=O)(=O)c1ccc(Cl)cc1
89	-2.5	15.0	O=C(NCC1(c2ccccc2)CCCC1)c1cc2c(s1)-c1ccccc1S(=O)(=O)C2
90	·	19.0	CS(=O)(=O)CCC1NC(=O)N(CC(=O)c2ccccc2)C1=O (stereo not drawn)
91	·	-14.0	COc1ccccc1C(=O)NC1=NN(c2ccc3ccccc3c2)CC1
92	-0.5	1.0	Cc1c(C=Nc2ccc(S(=O)(=O)N(C)C)cc2)c(O)n(C)c(=O)c1C#N
93	·	-16.0	C=CCN(CC=C)C(=O)c1csc(Nc2ccc(OC)cc2)n1
94	·	5.0	C[C@@H]1CC[C@H]2[C@H](C)[C@H]3CC[C@@]4(O)C5C[C@@H](O)[C@H]6C[C@H](O)CC[C@]6(C)[C@H]5C[C@H]4[C@@H]3CN2C1 (stereo partly drawn)
95	·	4.0	Cc1ccc(NC(=O)c2noc3c2CCc2ccccc2-3)cc1
96	3.4	8.0	CC(C)(CO)NC12CC3CC(CC(C3)C1)C2
97	·	3.0	Fc1ccc2nc(NCc3ccccc3)sc2c1
98	·	32.0	O=C(O)CC1(Cc2nc3ccccc3s2)CCCC1
99	·	-18.0	Cc1cc(C(=O)CSc2nc(N)nc(N)n2)c(C)n1CCC1=CCCCC1
100	-1.6	·	CSc1cccc(NC2OC(=O)c3ccccc32)c1 (stereo not drawn)
101	3.2	-3.0	COc1ccc(/C=C2\Oc3ccccc3N(CC(=O)NC(C)c3ccccc3)C2=O)cc1 (stereo not drawn)
102	·	-17.0	Cn1c(/C(C#N)=N/O)nc2ccccc21
103	1.3	7.0	CC(C)(C)c1cc(C(=O)N(CCO)CCO)cc(C(C)(C)C)c1
104	·	-1.0	O=C(O)c1ccc(Nc2cnn(C34CC5CC(CC(C5)C3)C4)c(=O)c2Cl)cc1
105	-2.8	0.0	O=C(O)C(CO)NS(=O)(=O)c1ccc(F)cc1 (stereo not drawn)
106	-0.8	·	Fc1ccc(CN2CCCN(Cc3ccc(F)cc3)C2c2cccnc2)cc1
107	24.6	7.0	Nc1nnc(SCC(=O)NCc2ccco2)n1CC(=O)NCc1ccco1
108	1.5	14.0	Nc1ncc(Cc2ccccc2)s1
109	-1.0	·	O=C(Nc1cscc1S(=O)(=O)c1ccccc1)c1ccccc1Cl
110	·	-17.0	Cc1ccc(NS(=O)(=O)C(F)(F)F)cc1
111	1.9	2.0	CCOC(=O)C1=C(O)/C(=C\c2sccc2C)N=C1C
112	0.3	·	O=c1[nH]c2cc(C(F)(F)F)ccc2n1-c1cc(C(F)(F)F)ccc1O
113	5.4	·	CCc1ccc2[nH]c(C(=O)NC(C)COC)cc2c1 (stereo not drawn)
114	1.4	8.0	O=C1C2C(C(=O)N1/N=C/c1ccccc1)C1C=CC2C12CC2 (stereo not drawn)
115	3.4	11.0	COc1ccc(CCNC(=O)Cc2nn(C)c(=O)c3ccccc23)cc1OC
116	·	-26.0	CCOC(=O)c1ccc(N2C(=O)CS(=O)(=O)CC2=O)cc1
117	·	-12.0	CC1=C/C(=N/NC(=O)c2nc3ccccn3c2C)CC(C)(C)C1
118	·	6.0	CC(C)Cn1ccn(-c2cccc(Cl)c2)c(=O)c1=O
119	1.5	5.0	c1ccc2c(c1)CC(CN1CCNCC1)O2 (stereo not drawn)
120	-2.1	6.0	CC1(C)CC(=O)C2=C(C1)Nc1ccccc1N(C(=O)c1ccccc1)C2c1ccccc1 (stereo not drawn)
121	·	2.0	c1ccc2c(c1)OCC(CNc1ncnc3nc[nH]c13)O2 (stereo not drawn)

Gathered by group, the compounds so far containing an aryl thioether with sulfur outside any ring.
#	MgrA-DNA mod	Sa helicase inh	SMILES
13	·	5.0	O=c1[nH]nc(SCc2csc(-c3ccccc3)n2)n1Cc1ccccc1
34	·	16.0	CC(C)Sc1n[nH]c(=S)n1N
35	·	-10.0	CCn1c(SCC(=O)NC(C)(C#N)C(C)C)nnc1-c1ccccc1 (stereo not drawn)
38	·	13.0	CCOC(=O)c1c(C)[nH]c(C)c1C(=O)COC(=O)CSc1nnc(-c2ccco2)n1CC
43	·	-28.0	CCCCOc1ccc(NC(=O)CCSc2nccn2C)cc1
67	-3.0	11.0	CSc1nc2ccc(N=Cc3ccc(Sc4nnnn4-c4ccccc4)o3)cc2s1
68	·	-7.0	Cc1nnc(SCC(=O)c2cc(C)n(CCC(C)C)c2C)n(N)c1=O
76	17.8	-10.0	CSc1ccc(C=C2C(=O)c3ccccc3C2=O)cc1
77	-1.6	3.0	COc1ccccc1NC(=O)CSc1nc2n[nH]c(C)c2c(=N)n1-c1ccc(C)c(Cl)c1
80	·	8.0	Nc1nc(SCc2cc(=O)oc3ccc4ccccc4c23)n[nH]1
99	·	-18.0	Cc1cc(C(=O)CSc2nc(N)nc(N)n2)c(C)n1CCC1=CCCCC1
100	-1.6	·	CSc1cccc(NC2OC(=O)c3ccccc32)c1 (stereo not drawn)
107	24.6	7.0	Nc1nnc(SCC(=O)NCc2ccco2)n1CC(=O)NCc1ccco1

Bioassay records (PubChem)

Some of the compounds tested. The share of hits here may be higher or lower than overall.
